# VACV Venus inh – vaccinia inhibition (Venus reporter); AID 720580; Vaccinia virus Venus reporter expression, fluorescence; Potency, µM (titrated, usually from 36.5 µM), for the others: at the top dose activity change, negative = inhibition, usual class: inhibitors; 330,000 compounds, 0.46% hits; active means well fitted inhibition curve with a large enough effect; inconclusive means small, poorly fitted or top-dose-only effect; inactive means no such curve, though single readings can be large or run the other way; tested in A549 cells; also: nearly all actives have a fitted effect of over 30% in size; inactives centre near -10
# VACV mCherry inh – inhibitors of vaccinia virus infection (mCherry reporter signal); Vaccinia virus mCherry reporter infection, fluorescence; about a quarter of the inactives have no number; Potency, µM (doses to about 36.5 µM), for the others: at the top dose activity change, negative = inhibition, usual class: inhibitors; 310,000 compounds, 0.63% hits; AID 720579; active = well fitted inhibition curve with a large enough effect; inconclusive = small, poorly fitted or top-dose-only effect; inactive = no such curve, though single readings can be large or run the other way; tested in A549 cells; also: nearly all actives have a fitted effect of over 35% in size; inactives centre near -10
# * = called active by the depositor; i = inactive; ? = inconclusive; / = no result given; [ ] = another dose, or the depositor's remark. % is scaled to controls: 0 for no effect and ±100 for the full control effect; potency is read from the fitted curve at half-maximal effect.
# A first look:
# Results follow in this order: VACV Venus inh	VACV mCherry inh
> CN(C(=O)COC(=O)C1c2ccccc2Oc2ccccc21)C1CCS(=O)(=O)C1 (stereo not drawn)
→ -11%	i
> COc1ccc2c(C)cc(=O)sc2c1
→ -5%	1%
> CC12CCC(C(=O)N(c3nccs3)C1=O)C2(C)C (stereo not drawn)
→ 0%	i
> O=C(c1c[nH]c2ccc(S(=O)(=O)N3CCOCC3)cc2c1=O)N1CCC2(CC1)OCCO2
→ -12%	?
> Cc1nc(C)c(CC(=O)N2CCc3c([nH]c4ccccc34)C2c2ccccn2)s1 (stereo not drawn)
→ -12%	-8%
> O=C(CCC(=O)Nc1ccc(Cl)cc1Cl)NNC(=O)Nc1ccccc1
→ -11%	-28%
> Cc1ccc(-c2[nH]c3cc(C(=O)NCCCn4ccnc4)ccc3c(=O)c2O)cc1
→ -3%	-6%

# This part in full, previewed entries included:
# Results follow in this order: VACV Venus inh	VACV mCherry inh
> CN(C(=O)COC(=O)C1c2ccccc2Oc2ccccc21)C1CCS(=O)(=O)C1 (stereo not drawn)
→ -11%	i
> COc1ccc2c(C)cc(=O)sc2c1
→ -5%	1%
> CC12CCC(C(=O)N(c3nccs3)C1=O)C2(C)C (stereo not drawn)
→ 0%	i
> O=C(c1c[nH]c2ccc(S(=O)(=O)N3CCOCC3)cc2c1=O)N1CCC2(CC1)OCCO2
→ -12%	?
> Cc1nc(C)c(CC(=O)N2CCc3c([nH]c4ccccc34)C2c2ccccn2)s1 (stereo not drawn)
→ -12%	-8%
> O=C(CCC(=O)Nc1ccc(Cl)cc1Cl)NNC(=O)Nc1ccccc1
→ -11%	-28%
> Cc1ccc(-c2[nH]c3cc(C(=O)NCCCn4ccnc4)ccc3c(=O)c2O)cc1
→ -3%	-6%
> CC1CN=C(Nc2cccc(S(=O)(=O)N(C)C)c2)S1 (stereo not drawn)
→ -21%	i
> CCC1=NN=C(c2ccc(F)cc2)C(c2c[nH]c3ccccc23)N1O (stereo not drawn)
→ -11%	i
> Cc1ccc(NC(=O)CN2C(=O)c3ccccc3S2(=O)=O)cc1C
→ -11%	-7%
> CC1=Nc2ccccc2N=C(NC(=O)CN2CCN(c3ccccc3)CC2)C1c1ccccc1 (stereo not drawn)
→ 5%	i
> COc1ccc(CCNC(=O)CCn2c(=O)c3ccccc3n(Cc3c(C)cc(C)cc3C)c2=O)cc1OC
→ 22%	26%
> O=C1NCCc2cc3c(cc21)OCO3
→ -12%	-11%
> O=C(O)c1cccc(Oc2ccccc2[N+](=O)[O-])c1
→ -7%	-1%
> CCOC(=O)c1cccc(NS(=O)(=O)c2cnc[nH]2)c1
→ -9%	-13%
> CCOC(=O)N1CCN(S(=O)(=O)c2ccc(C)c(C(=O)NC3CCCCC3)c2)CC1
→ -21%	0%
> COc1ccccc1OCc1cc(C(=O)N(C)CCC2CCCCO2)no1 (stereo not drawn)
→ -15%	-3%
> COc1ccc(Nc2ccnc3ccccc23)cc1
→ -20%	/
> CCc1nc(SCC(=O)c2c[nH]c3ccccc23)n[nH]1
→ 1%	0%
> C[C@@H](N)C(=O)NC[C@H]1O[C@@H](n2cnc3c(N)ncnc32)[C@H](O)[C@@H]1O
→ -1%	i
> CC1(C(=O)NCC(F)(F)F)CCN1C(=O)C1(c2ccccc2)CC1 (stereo not drawn)
→ 15%	-3%
> Cc1cc(C)c2c(c1)CC(C)(C)CC2=O
→ -17%	-10%
> COc1cc2oc(=O)cc(CN3CCN(c4ccccc4OC)CC3)c2cc1Cl
→ 2%	30%
> Cc1cc(C)c(NC(=O)Cn2nnc(C(=O)Nc3ccc(F)cc3F)c2N)c(C)c1
→ ?	-17%
> c1ccc2c(SCc3cn4cccnc4n3)ncnc2c1
→ -18%	/
> COc1cccc(C(=O)N(Cc2cc3cc(C)ccc3[nH]c2=O)C(C)C)c1
→ -3%	-11%
> COc1cc(NC(=O)Cn2ncc3c([nH]c4ccc(C)cc43)c2=O)cc(OC)c1OC
→ -8%	-8%
> COc1cccc(C(O)c2nc(-c3cccc(F)c3)cs2)c1 (stereo not drawn)
→ -8%	i
> CCOC(=O)/C=C1\SCC(=O)N1CC(=O)NCCOC
→ -2%	-11%
> N#CC1=C2CCCCC2(O)NC1=O (stereo not drawn)
→ -7%	i
> COc1cc(CN2CCCC(n3cc(C(=O)N4CCCCC4)nn3)C2)cc2c1OCO2 (stereo not drawn)
→ -4%	0%
> COCCNC(=O)C1CCCN(S(=O)(=O)c2cccc3nsnc23)C1 (stereo not drawn)
→ -13%	i
> CC(=O)c1cccc(NC(=O)CCNS(=O)(=O)c2cccc(C(C)=O)c2)c1
→ -17%	i
> CC(=O)c1cccc(OCc2cc(C(=O)N(C)Cc3ccc(C)o3)no2)c1
→ -10%	i
> CCCNC(=O)c1c(CSc2ccccc2)noc1C(=O)NCc1ccccc1
→ -29%	-5%
> O=Cc1c[nH]c2ccc(NC(=O)OCc3ccccc3)cc12
→ 0%	-26%
> Cn1ccnc1C(=O)c1cc(SCC(=O)N2CCOCC2)nc2ccccc12
→ -1%	i
> CCC(C)(C)C1CCc2[nH]nc(C(=O)NCCCNC(=O)OC(C)(C)C)c2C1 (stereo not drawn)
→ ?	-13%
> CCN(CCn1cccn1)C(=O)c1ccc(OC2CCN(C(=O)COC)CC2)cc1
→ -15%	i
> O=C(CCC(=O)Nc1ccc(Cl)cc1Cl)N/N=C/c1ccc([N+](=O)[O-])o1
→ ?	?

# Laid out differently: entries from further up
structure | VACV Venus inh | VACV mCherry inh
O=C(c1c[nH]c2ccc(S(=O)(=O)N3CCOCC3)cc2c1=O)N1CCC2(CC1)OCCO2 | -12% | ?
CCOC(=O)/C=C1\SCC(=O)N1CC(=O)NCCOC | -2% | -11%
COCCNC(=O)C1CCCN(S(=O)(=O)c2cccc3nsnc23)C1 (stereo not drawn) | -13% | i
N#CC1=C2CCCCC2(O)NC1=O (stereo not drawn) | -7% | i
CC12CCC(C(=O)N(c3nccs3)C1=O)C2(C)C (stereo not drawn) | 0% | i

# (next part)
# Results follow in this order: VACV Venus inh	VACV mCherry inh
> CCOC(=O)C1=CN(CC2CCCCC2)CCC1=O
→ -5%	-3%
> O=C(NC(=S)NN1CCCCC1c1cccnc1)c1ccc(Br)cc1 (stereo not drawn)
→ ?	?
> CCOc1ccc(NC(=O)CCNC(=O)Cn2ccc3ccccc3c2=O)cc1
→ -8%	-10%
> COc1ccnc(NCc2cccc(C(F)(F)F)c2)c1C#N
→ -1%	-8%
> Cn1nc(CC(=O)Nc2cccc3ncccc23)c2ccccc2c1=O
→ ?	?
> COc1cc(OC)cc(C(=O)NCCCN2CCOCC2)c1
→ -6%	-10%
> Nc1nc2c(C(=O)N3CCOCC3)nnn2c2ccccc12
→ -2%	i
> O=C1c2ccccc2C(=Cc2cccnc2)c2ccccc21
→ -1%	i
> CC(NC(=O)c1ccc2nc(Cc3ccccc3)oc2c1)c1ccccc1 (stereo not drawn)
→ -9%	-13%
> COc1ccccc1NC(=O)c1oc2ccccc2c1NC(=O)c1c(F)cccc1F
→ -17%	-21%
> CCc1ccccc1NC(=O)CSc1nnc(-c2cc(C)[nH]n2)n1N
→ 4%	-8%
> Cc1cccc(Nc2nnc(SCC(=O)NCc3cccs3)s2)c1C
→ -3%	-16%
> CC(OC(=O)CCN1C(=O)c2cccc([N+](=O)[O-])c2C1=O)C(=O)Nc1cc(Cl)cc(Cl)c1 (stereo not drawn)
→ 5%	-8%
> CCOC(=O)C1(CCc2ccccc2)CCN(C(=O)c2ccoc2)CC1
→ -13%	i
> C[C@H](NC(=O)N1CCC(Cc2ccccc2)CC1)C(=O)O
→ -2%	-14%
> COc1ccc(-c2ccc(C(=O)NC3CCCCC3)c3occc23)c(C)c1
→ -22%	0%
> O=C(O)Cc1cc(=O)[nH]n(-c2ccccc2)c1=O
→ -11%	i
> COc1ccc(F)c(CN2CCC(n3nccc3NC(=O)C3CCOC3)CC2)c1 (stereo not drawn)
→ 3%	-17%
> O=C(CNC(=O)C1CCCCC1)OCC(=O)c1ccc2c(c1)CCC2
→ -11%	31%[activator]
> CCCN1C(=O)c2cc(C(=O)NCCc3cccc(C)c3)ccc2C1O (stereo not drawn)
→ -2%	i
> CC1CCN(c2nc3nonc3nc2Nc2ccc(F)cc2)CC1
→ -19%	?
> Cc1ccc(C(=O)CC2C(=O)N(c3ccccc3)C(=S)N2c2ccccc2)cc1 (stereo not drawn)
→ -15%	-11%
> O=C(CN1CCN(Cc2ccccc2)C1=O)NCc1ccc(Cl)cc1
→ -16%	/
> CCCc1cc(=O)[nH]c(NCCc2ccccc2)n1
→ -1%	-14%
> Cc1cc(O)cc2c1C(=O)/C(=C/c1ccco1)O2
→ 2%	i
> O=C(CN1C(=O)CC(c2ccco2)Sc2ccccc21)NCc1ccc2c(c1)OCO2 (stereo not drawn)
→ -14%	-3%
> COc1cc(Br)c(CCNC(=O)Cc2ccccc2)cc1OC
→ -4%	-11%
> C=CCn1c(COc2cccc3ccc(C)nc23)nnc1SCC(=O)O
→ -7%	-14%
> Cc1c(Cl)cccc1NC(=S)N1CCC(C(N)=O)(N2CCCCC2)CC1
→ -20%	-7%
> CC1(C(=O)Nc2ccc(F)c(Cl)c2)Cc2c(-c3cccc(C(F)(F)F)c3)ccnc2O1 (stereo not drawn)
→ 2%	i
> C=CCNC(=O)CSc1n[nH]c(-c2cc(Cl)ccc2OC)n1
→ -15%	-9%
> CN(C)c1ccc(C(CNC(=O)COc2ccc(Cl)cc2)N2CCOCC2)cc1 (stereo not drawn)
→ -4%	-8%
> C=CCC(C=C)[N+]1(CC(=O)OC)CCCCC1 (stereo not drawn)
→ -2%	i
> CCOc1ccc(CCNC(=O)c2ccc(C)c(N3CCCC3=O)c2)cc1OCC
→ -9%	-1%
> O=C(OCC(=O)N1CCCC1)c1c(Cl)ccc(Cl)c1Cl
→ -18%	-4%
> Nc1cc(-c2ccc(Br)cc2)[nH]n1
→ -16%	-15%
> CCOc1ccc(-n2nc3c(=O)n(CCN4CCCCC4)nc(C)c3c2C)cc1
→ -27%	-8%
> C/C(=N\Nc1ccccc1)c1c(O)cc(C)oc1=O
→ -13%	-10%
> CCOC(=O)c1ccc(N2C(=O)c3n[nH]c(C)c3C2c2ccco2)cc1 (stereo not drawn)
→ -27%	/
> Cc1cccc(NC(=S)N(c2ccccc2)C(C)C)c1C
→ -6%	-14%
> CNC(=S)N(C)/N=C1/C(=O)N(Cc2c(Cl)cccc2Cl)c2ccccc21
→ -21%	-15%
> Cc1cccc(CSc2nncc(=O)[nH]2)c1
→ -26%	i
> CCOc1ncccc1C(=O)Nc1ccc(OC)c(S(=O)(=O)N2CCCCC2)c1
→ -4%	-16%
> COc1ccc(S(=O)(=O)N2CCOC2CNC(=O)C(=O)NCCCN2CCCC2=O)cc1OC (stereo not drawn)
→ -15%	-13%
> CCOC(=O)c1ccc(N=c2sc(C(=O)OC)cc(=O)n2C2CC2)cc1
→ -9%	-14%
> CC(=O)N1CCC[C@H]1C(=O)NCC1Cc2cc(C)cc(-c3ccc(Cl)cc3)c2O1 (stereo partly drawn)
→ -10%	-17%
> CCCCC(=O)Nc1nnc(-c2ccco2)o1
→ -6%	3%
> CCOC(=O)Cn1c(CN2CCc3ccccc3C2)nc2c1c(=O)n(C)c(=O)n2C
→ -14%	i
> Cc1nn(-c2ccccc2)c(C)c1C(=O)NCc1ccc(F)cc1
→ -9%	-4%
> CCOc1ccccc1NC(=O)NC1CC2CCCC(C1)N2Cc1nnnn1CCc1ccccc1 (stereo not drawn)
→ -13%	-19%

# Continuation:
# Results follow in this order: VACV Venus inh	VACV mCherry inh
> O=C(O)CCC(=O)Nc1sc2c(c1C(=O)Nc1cccc3ccccc13)CCCCC2
→ -3%	i
> O=C(c1ccco1)N1CCN(C(=O)N2CCOCC2)CC1
→ -3%	-12%
> CCCNC(=O)N(C)C[C@H]1Oc2ncc(Br)cc2C(=O)N([C@H](C)CO)C[C@H]1C
→ -9%	-13%
> CCOC(=O)c1sc(N=NC2=C(O)CC(C)(C)CC2=O)c(C(=O)OCC)c1C
→ -10%	-20%
> CCN(CC)C(=O)c1cccc(NC(=O)C2CCN(C(=O)c3cccs3)CC2)c1
→ -6%	12%
> CCOc1ccc(CCNC(=O)COC(=O)c2cccnc2Cl)cc1OCC
→ -8%	-10%
> CN(C)S(=O)(=O)c1ccc(C(=O)NCc2ccccc2)cc1
→ -9%	-3%
> O=C1C=C(c2cccnc2)CCC1
→ -11%	-12%
> COc1ccc(C(C(=O)NCC2CCCO2)N(C(=O)CNC(=O)c2ccco2)c2cc(C)ccc2C)cc1OC (stereo not drawn)
→ -7%	-14%
> O=C(c1cc(-c2ccncc2)nc2ccc(Cl)cc12)N1CCN(C(=O)C2CCCO2)CC1 (stereo not drawn)
→ 11%	/
> CC1C(=O)N(Cc2cn(CC3CCCCC3)nn2)CCS(=O)(=O)N1Cc1ccc(-c2ccc(Cl)cc2)cc1 (stereo not drawn)
→ 11µM*	?
> Cc1cc(F)cc(-c2cc(C(=O)NCc3ccccc3)[nH]n2)c1
→ 4%	7%
> CCn1c(C(=O)N2CCC(C(=O)NCc3ccc(OC)cc3)CC2)cc2sccc21
→ -17%	-3%
> c1ccc(-c2ccc(-c3nc(-c4cccnc4)no3)cc2)cc1
→ -15%	-12%
> Cc1ccc2c(CC(=O)Nc3nnc(C(C)C)s3)coc2c1C
→ ?	?
> COc1ccc(NC(=O)CN(C)C(=O)CCSc2ccc(F)cc2)cc1
→ -12%	-18%
> CC(C)(C)NC(=O)C(c1ccncc1)N(Cc1cccs1)C(=O)Cn1nnc(-c2ccc(F)cc2)n1 (stereo not drawn)
→ -18%	i

# Screening results deposited in PubChem BioAssay by National Center for Advancing Translational Sciences (NCATS).

# The order is random; 0.88% or so of the library scored in one or more.
